VACV mCherry inh – qHTS for Stage-Specific Inhibitors of Vaccinia Orthopoxvirus: mCherry Reporter Primary qHTS; Vaccinia virus mCherry reporter infection, fluorescence; about a quarter of the inactives have no number; Potency, µM (top dose mostly 36.5 µM), inactives show at the top dose activity change, negative = inhibition, most hits filed as inhibitors; actives 0.63% (n = 310,000); active = well fitted inhibition curve with a large enough effect; inconclusive = small, poorly fitted or top-dose-only effect; inactive = no such curve, though single readings can be large or run the other way; tested in A549 cells; also: nearly all actives have a fitted effect of over 35% in size; inactives centre near -10
VACV Venus inh – qHTS for Stage-Specific Inhibitors of Vaccinia Orthopoxvirus: Venus Reporter Primary qHTS | Vaccinia virus Venus reporter expression, fluorescence | Potency, µM (top dose mostly 36.5 µM), inactives show top-dose activity change, negative = inhibition, actives largely listed as inhibitors | actives 0.46% (n = 330,000) | AID 720580, 2013; active means well fitted inhibition curve with a large enough effect; inconclusive means small, poorly fitted or top-dose-only effect; inactive means no such curve, though single readings can be large or run the other way; tested in A549 cells; also: nearly all actives have a fitted effect of over 30% in size; inactives centre near -10
Starred values were filed as active, the others as inactive; i = inactive; ? = inconclusive; . = no result given; [ ] = another dose, or the depositor's remark. % is scaled to controls: 0 for no effect and ±100 for the full control effect; potency is read from the fitted curve at half-maximal effect.

SMILES	VACV mCherry inh	VACV Venus inh
O=C(CN1C(=O)NC2(CCCc3ccccc32)C1=O)N1CCCCC1 (configuration not stated)	-6.2%	-7.4%
COc1ccc(N=CC2=C(O)c3ccccc3C2=O)cc1	-21.3%	-14.3%
O=C(c1ccc(Br)cc1)N(Cc1nc2ccccc2c(=O)[nH]1)C1CCCC1	i	-13.6%
COc1ccc(C(=O)OCCN2CCOCC2)cc1	.	0.1%
Cc1cccc(-c2nc(CS(=O)CC(=O)NC3CCCC(C)C3C)c(C)o2)c1 (configuration not stated)	-3.6%	-19.1%
CC(=O)NC(Cc1ccccc1C)C(=O)NC1CCN(c2nnnn2-c2ccccc2)CC1 (configuration not stated)	-11.1%	-5.7%
O=C(NCc1ccco1)c1cccc(NS(=O)(=O)c2cccc(F)c2)c1	-6.8%	-6.1%
CC(C)C[C@H]1CN(CCCC[C@@H]2CNC(=O)C(=O)N2CCc2ccccc2)C(=O)C(=O)N1CCC1CCCCC1	22.3%	0.1%
C[C@H](O)[C@@H]1CN2CCc3c([nH]c4ccc(-c5ccc6c(c5)OCO6)cc34)[C@@H]2C[C@@H]1N(C)C(=O)Nc1ccc(F)cc1	?	?
COc1ccc(/C(C)=N/NC(=O)c2nnn(-c3nonc3N)c2-c2cccs2)cc1OC	-13.9%	-7.1%
CC(=O)Nc1sc2c(c1C(c1ccncc1)N1CCOCC1)CCCC2 (configuration not stated)	-10.7%	-5.6%
CCc1ccccc1NC(=O)NC1CCCCC1	.	-16.7%
CCOC(=O)CCCCCC(=O)Nc1ccc2c(c1)C(=O)N([C@H](C)CO)C[C@@H](C)[C@H](CN(C)S(=O)(=O)c1cn(C)cn1)O2	i	-8.5%
Cc1ccccc1SCC(=O)Nc1cc(C(F)(F)F)ccc1N1CCOCC1	-23.1%	-14.1%
O=C(/C=C/c1ccccc1)c1ccccn1	-9.3%	-5.8%
COc1cccc(CC(O)CC2c3c(cc4c(c3OC)OCO4)CCN2C)c1 (configuration not stated)	-21.8%	?
CC(C)c1ccc(OCC(=O)N(Cc2ccc(N(C)C)cc2)C2CCS(=O)(=O)C2)cc1 (configuration not stated)	-2.9%	-8.9%
O=C(COC(=O)c1ccc2ncsc2c1)Nc1ccccc1Cl	-21.4%	-14.4%
COc1cc(Cl)c(NC(=O)CN(C)S(=O)(=O)c2ccc3c(c2)CCCC(=O)N3)c(OC)c1	i	-5.9%
COc1ccc(N=C2SCC(c3ccc([N+](=O)[O-])cc3)=NN2CCO)cc1	?	-6.7%
CCOc1ccc(/C=N/NC(=S)NC2CC3CC2C2C=CCC32)cc1 (configuration not stated)	-4.5%[7.34 µM]	0.4%[7.34 µM]
CN(c1ccccc1)S(=O)(=O)c1cccc(NC(=O)c2cc3ccccc3oc2=O)c1	i	-4.7%
Cc1cc(C)c(C(=O)COC(=O)Cn2nc(-c3ccccc3)oc2=O)cc1C	i	0.5%
Cc1cccc(-c2nc(CS(=O)CC(=O)NCCc3ccc(Cl)cc3)c(C)o2)c1 (configuration not stated)	-4.0%	-14.8%
O=C(O)C1CCCN(S(=O)(=O)c2ccc(-c3ccc(=O)[nH]n3)s2)C1 (configuration not stated)	-14.1%	-1.6%
NC(=O)CSc1nnc(Cc2csc(Nc3ccccc3)n2)n1Cc1ccccc1	-22.5%	-20.6%
O=C(COC(=O)COc1ccccc1)Nc1ccc(Br)cc1Br	1.1%	2.3%
COc1ccc(S(=O)(=O)Oc2ccccc2C(N)=O)cc1	-3.3%	-16.6%
CC(C)N(Cc1ccccc1)c1ncnc2c1nnn2C	-12.2%	-2.8%
CCNc1nc(NCC)nc(Oc2ccc(N)cc2)n1	-0.1%	-10.2%
COc1ccc(NC(=O)c2oc3ccccc3c2NC(=O)c2cc(=O)c3c(C)cc(C)cc3o2)cc1	0.2%	-13.7%
O=C(NCc1nc2ccccc2[nH]1)C1=C[C@@H](c2csc3ccccc23)C[C@@H](OCc2ccc(CO)cc2)O1	i	?
CCCCN(C)CC(O)Cn1cc(/C=C/C(=O)c2ccc(OCC)cc2)c2ccccc21 (configuration not stated)	?	?
CCOC(=O)c1ccc(NC(=S)N2CCSC2c2c(F)cc(F)cc2F)cc1 (configuration not stated)	i	-22.5%
COc1cc(C(=O)NCc2ccco2)c(Br)c(OC)c1OC	-7.3%	-14.8%
CCOC(=O)CNC(=O)c1ccc(Cl)s1	i	3.7%
C#CCOCCOCCOCCNc1nc(N2CCOCC2)nc(N2CCN(C(=O)Cn3cc(CCCCN)nn3)CC2)n1	i	6.9%
OC(c1ccco1)c1nc(-c2cccs2)cs1 (configuration not stated)	14.3%	-6.4%
COc1ccccc1NC(=O)CSc1nnc(C2CCCCC2)n1C	.	-11.2%
[O-]c1c[n+](-c2ccc(-[n+]3cc([O-])on3)cc2)no1	i	1.0%
Cn1ccc2c(N(Cc3ccccc3)Cc3ccccc3)cc3c(c21)C1CCC3O1 (configuration not stated)	20.0%	2.1%
Cc1ccc(OCCCCNC(C)c2ccccc2)c(C)c1 (configuration not stated)	-16.1%	-16.3%
CC(=O)Nc1ccc(N2C(=O)c3cccc(NC(C)=O)c3C2=O)cc1	i	-13.5%
COc1ccc(C2=NOC(C(=O)Nc3cccc(O)c3)C2)cc1 (configuration not stated)	-10.9%	-0.7%
OC(c1ccccc1)(c1nc(-c2ccc3c(c2)OCO3)cs1)C(F)(F)F (configuration not stated)	3.5%	-4.1%
CC12CCC(C(=O)Nc3ccccc3N3CCOCC3)(CC1=O)C2(C)C (configuration not stated)	-8.2%[1.46 µM]	-8.6%
COc1ccc(NC(=O)C2(S(=O)(=O)c3ccc(C)cc3)CC2)cc1OC	-15.3%	1.1%
CCn1c(=O)cc(SCC(=O)NCCN2CCN(Cc3ccccc3)CC2)c2ccccc21	-1.1%	-11.8%
Cc1cccc(C(=O)NNC(=O)c2ccc(O)cc2)c1	-9.0%	-5.5%
O=C1CS/C(=N/N=C/c2c[nH]c3ccccc23)N1	i	5.0%
COC(=O)N1CCCCC1c1cc(C(=O)Nc2ccc3c(c2)OCO3)no1 (configuration not stated)	8.6%	-7.4%
Cc1nn(-c2ccccc2)c2nc(C(Cl)(Cl)Cl)[nH]c(=O)c12	?	-15.5%
C=CC[C@@H](CC(=O)N[C@H](CO)Cc1ccccc1)C(=O)N[C@H](C)COC(=O)[C@@H](CC=C)CC(=O)OC(C)(C)C	i	-11.9%
CCC1Sc2ccccc2N(CC(=O)NCCC(C)C)C1=O (configuration not stated)	-14.6%	-8.9%
CCC(=O)N1CCN(c2ccc(NC(=O)c3ccc([N+](=O)[O-])o3)cc2)CC1	?	?
CCc1ccc(N2CC(c3nnc(NC(=O)c4ccco4)s3)CC2=O)cc1 (configuration not stated)	-2.8%	-12.8%
CC(C)c1nn2c(=O)cc(COC(=O)c3ccccc3NC(=O)c3cccs3)nc2s1	i	-4.4%
Cc1ccc(NC(=O)CCSc2ccccn2)cc1	-1.0%	-10.5%
CC(=O)N1CCN(S(=O)(=O)c2cccc(C(=O)NC3CCC(C)CC3)c2)CC1 (configuration not stated)	-3.4%	-5.6%
O=C1NC(Cc2ccccc2)C(=O)N1Cc1cc([N+](=O)[O-])cc2c1OCOC2 (configuration not stated)	-7.8%	-6.1%
(listing goes on)
SMILES	VACV mCherry inh	VACV Venus inh
O=C(O)c1cccc2c1/C(=N/O)c1ccccc1-2	i	0.2%
COc1ccc(CN2CCC2(C)C(=O)NCCNC(C)=O)c2ccccc12 (configuration not stated)	10.5%	0.8%
CC(=O)Nc1cccc(C(=O)OCCCOc2ccc(F)cc2)c1	i	-19.0%
Cc1cccc(-n2ncc3c(N4CCN(c5ccccc5)CC4)ncnc32)c1	-10.2%	-7.3%
CC1(C(=O)Nc2ccc(S(=O)(=O)Nc3ncccn3)cc2)CCCC1	-9.7%	4.7%
O=C(NNC(=O)c1cccs1)Nc1cccc(Cl)c1	-14.2%	-9.3%
Cc1nn(S(=O)(=O)c2ccc([N+](=O)[O-])cc2)c(C)c1Sc1ccccc1	-0.6%	-14.1%
CC1CCc2nc3ncn(Cc4cccc(F)c4)c(=O)c3cc2C1 (configuration not stated)	-19.0%	-22.1%
Cc1oc(-c2ccc(Cl)cc2)nc1CN1CCCC(C(=O)NCc2ccccc2)C1 (configuration not stated)	-29.1%	-29.1%
Fc1ccccc1N1CCN(c2nc3ccccc3n3nnnc23)CC1	.	5.8%
COc1cccc(C2c3c(oc4ccc(F)cc4c3=O)C(=O)N2CCN2CCOCC2)c1OC (configuration not stated)	-15.6%	-6.2%
Cn1c(SCC(=O)Nc2ccccc2F)nnc1-c1cccnc1	-6.0%	0.3%
CCCCN(CCCNC(=O)c1c(C)oc2nc[nH]c(=O)c12)Cc1ccccc1	-12.4%	-1.6%
O=c1c2[nH]c3ccc(Cl)cc3c2ncn1CCN1CCCCC1	.	-7.2%
CCOC(=O)/C(=N\Nc1ccccc1Cl)N1CCN(Cc2ccccc2)CC1	i	-2.6%
COc1ccc(Cc2nc(-c3ccc(Br)o3)no2)cc1OC	-11.3%	-8.8%
CC1=C(C(=O)N(C)C)CC(CC(=O)NCCN2CCOCC2)C(=O)N1Cc1ccc(C(C)(C)C)cc1 (configuration not stated)	i	-2.9%
CCCCC(NC(=O)c1cccc(Br)c1)C(=O)O (configuration not stated)	13.1%	0.4%
COC(=O)[C@@]12CCCCN1[C@H](c1ccc(-c3ccc(F)cc3)cc1)[C@@H]1C(=O)N(C)C(=O)[C@@H]12	-12.4%	-29.1%
COc1ccc(CNC(=O)C2CCN(S(=O)(=O)c3ccc4c(c3)CCCN4C(C)=O)CC2)cc1	3.3%	-10.4%

Compound profiles, from the list above.
Results for COc1ccc(CNC(=O)C2CCN(S(=O)(=O)c3ccc4c(c3)CCCN4C(C)=O)CC2)cc1 = VACV mCherry inh: 3.3%; VACV Venus inh: -10.4%
Results for CC1=C(C(=O)N(C)C)CC(CC(=O)NCCN2CCOCC2)C(=O)N1Cc1ccc(C(C)(C)C)cc1 (configuration not stated) = VACV mCherry inh: i; VACV Venus inh: -2.9%

Continuation.
SMILES	VACV mCherry inh	VACV Venus inh
CCC1CN(C(=O)N2CCC(C(=O)NCc3ccccc3F)CC2)c2ccccc2O1 (configuration not stated)	2.2%	-1.2%
O=C(/C=C/c1ccc(OCCCF)cc1)N1CCN(Cc2ccccc2)CC1	?	-7.2%
N#Cc1nc(COc2ccc(F)cc2)oc1N1CCCC1	-21.2%	-14.5%
CCC1Oc2ccccc2N(CC(=O)NC2CCCCC2)C1=O (configuration not stated)	-18.3%	-13.1%
COC(=O)c1cc2oc(C)cc2n1CC(=O)N(C)c1ccccc1	-4.4%	-7.7%
Cc1ccc(N(C(=O)CCC(=O)Nc2cc(C)on2)C(C(=O)NC2CCCC2)c2ccncc2)cc1 (configuration not stated)	3.7%	-5.4%
Cc1cccc(NS(=O)(=O)c2cccc3nonc23)c1	i	-2.9%
CC(Oc1ccccc1)C(=O)NCc1cccnc1 (configuration not stated)	-1.8%	-16.1%
Cc1cccc(NC(=O)CSc2nnc(CNC(=O)c3cccs3)o2)c1C	i	-1.1%
COc1ccccc1-c1nnc(C2CCN(C(=O)c3ccccc3C)CC2)o1	-14.2%	-14.7%
CC1CN(C(c2ccco2)c2sc3ncnn3c2O)CC(C)O1 (configuration not stated)	i	-5.2%
O=c1onc(-c2ccccc2)n1Cc1ccc([N+](=O)[O-])cc1	?	-8.4%
Cc1cc(NS(=O)(=O)c2cc(Cl)sc2Cl)no1	-9.1%	-4.5%
CC(C)CC1C(=O)N(Cc2cn(Cc3ccco3)nn2)CCS(=O)(=O)N1Cc1ccc(-c2cccc(CO)c2)cc1 (configuration not stated)	i	-16.3%
COc1ccc(C2CC(C(F)(F)F)n3ncc(C(=O)Nc4c(C)n(C)n(-c5ccccc5)c4=O)c3N2)cc1 (configuration not stated)	-6.7%	-21.9%
COc1ccccc1-c1nc2c(c(SCC(=O)Nc3c(C)cc(C)cc3C)n1)Cc1c(CO)cnc(C)c1O2	-18.6%	-13.0%
Cc1cccc(C)c1NC(=O)c1ccc(-n2cncn2)nc1	.	-7.5%
CCCCn1c(=O)c(C=Nc2ccc(Cl)cc2)c(O)n(Cc2ccco2)c1=O	i	-3.9%
CCCCn1c(N)c(N(CCOC)C(=O)c2nn(CC)c(=O)c3ccccc23)c(=O)[nH]c1=O	i	-11.7%
CCn1cc(/C=N\NC(=O)Cc2ccc(Cl)cc2)cn1	-11.2%	-3.8%

Sorted by SMILES length (descending): 7 of the compounds above.
SMILES	VACV mCherry inh	VACV Venus inh
COc1ccccc1-c1nc2c(c(SCC(=O)Nc3c(C)cc(C)cc3C)n1)Cc1c(CO)cnc(C)c1O2	-18.6%	-13.0%
Cc1ccc(N(C(=O)CCC(=O)Nc2cc(C)on2)C(C(=O)NC2CCCC2)c2ccncc2)cc1 (configuration not stated)	3.7%	-5.4%
O=C(/C=C/c1ccc(OCCCF)cc1)N1CCN(Cc2ccccc2)CC1	?	-7.2%
Cc1cccc(NC(=O)CSc2nnc(CNC(=O)c3cccs3)o2)c1C	i	-1.1%
Cc1cccc(C)c1NC(=O)c1ccc(-n2cncn2)nc1	.	-7.5%
Cc1cc(NS(=O)(=O)c2cc(Cl)sc2Cl)no1	-9.1%	-4.5%
CC(Oc1ccccc1)C(=O)NCc1cccnc1 (configuration not stated)	-1.8%	-16.1%

Next part
SMILES	VACV mCherry inh	VACV Venus inh
O=C(Nc1nnc(SCc2cc(=O)n3cc(Cl)ccc3n2)s1)c1cccc(F)c1	i	-7.7%
CCOc1ccc(C(=O)NCC(c2ccc(Cl)cc2)N2CCCCC2)cc1 (configuration not stated)	-0.6%	-11.7%
O=C(NCCO)Nc1ccc(Cl)cc1	5.6%	13.4%
Cc1ccc(S(=O)(=O)NNC(=O)c2csnn2)cc1	-8.8%	1.5%

Screening results as filed in PubChem BioAssay.
